Assay outcomes: PubChem BioAssay, Fisher Drug Discovery Resource Center
NPYLR7 ag: mosquito NPYLR7 agonism; HEK293T NPYLR7/Galpha15, GCaMP6s calcium fluorescence; activation, % at 10 µM; hit rate 0.15% among 270,000; AID 1259423; in the data active means activation above about 40%;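 further: 0% = vehicle and 100% = reference agonist at the receptor; some compounds past the cut are filed as inactive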
NPYLR7 ag max-min: second read-out of NPYLR7 ag, no call of its own (marks repeat the call); activation, %; measured here: Max-Min RFU normalised activation; some inactives read as strong as hits;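 span of the calcium signal over five minutes; 0% = vehicle and 100% = native peptide agonist; compound fluorescence can raise it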
Starred values were filed as active, the others as inactive; & = joins results of further samples. An excerpt, so the mix of outcomes need not match the whole.

The first 4 records as a preview:
SMILES	NPYLR7 ag	NPYLR7 ag max-min
Cc1nc(NC(=O)CN2CCN(S(=O)(=O)c3ccc(Cl)c(C(F)(F)F)c3)CC2)sc1C	6	9
CCOC(=O)c1coc(N2CCCC3(CC2)CN(C)C(=O)O3)n1 (centres undefined)	14	0
CN(C)c1ccccc1NC(=O)COc1ccc(C#N)cc1	-1	-1
COc1cccc(Oc2cnn(C)c(=O)c2Nc2ccc(C(=O)N3CCN(C(C)=O)CC3)cc2)c1	16	24

The list itself, previewed entries included:
SMILES	NPYLR7 ag	NPYLR7 ag max-min
Cc1nc(NC(=O)CN2CCN(S(=O)(=O)c3ccc(Cl)c(C(F)(F)F)c3)CC2)sc1C	6	9
CCOC(=O)c1coc(N2CCCC3(CC2)CN(C)C(=O)O3)n1 (centres undefined)	14	0
CN(C)c1ccccc1NC(=O)COc1ccc(C#N)cc1	-1	-1
COc1cccc(Oc2cnn(C)c(=O)c2Nc2ccc(C(=O)N3CCN(C(C)=O)CC3)cc2)c1	16	24
O=C(NCc1ccc2c(c1)OCO2)C1COC2(CCCCC2)N1C(=O)c1cccc([N+](=O)[O-])c1 (centres undefined)	12	21
COc1ccc(-c2nc3ccc(C)cn3c2NC(=O)COc2ccccc2)cc1	-4	-2
Cc1ccc(C2=NN(S(C)(=O)=O)C(c3ccccc3F)C2)cc1 (centres undefined)	1	-1
Cc1ccccc1COc1cn(CC(=O)NC2CCCC2)c(CO)cc1=O	6	6
O=C(C=Cc1ccc(F)cc1)NCc1ccccn1	0	2
O=C(CCN1CCOCC1)NC1CCCN(CCc2ccccc2)C1 (centres undefined)	-2	-3
CC1C(=O)N(c2ccccc2-c2ccccc2)CCN1Cc1ccc(F)cc1 (centres undefined)	-10	-2
Cc1oc(C(C)C)cc1C(=O)NCC1CCCN(S(C)(=O)=O)C1 (centres undefined)	7	5
COC(=O)C(c1ccc(F)cc1Cl)C1C=CC(NC(=O)c2cc(F)c(F)cc2F)C1 (centres undefined)	4	-2
O=C(O)COc1ccccc1CN1CCCN(c2ccc(F)cc2)CC1	2	3
CC(=O)Nc1ccc(-n2ccnc2P(=O)(O)c2ccccc2)cc1	13	12
COc1cc(C)cc(C(=O)Nc2cccc(CS(C)(=O)=O)c2)c1O	15	11
COc1cccc(-c2cc(C(=O)N3CCC4(CC3)OCCO4)nc3cc(-c4ccccc4)nn23)c1	21	16
CCC(NC(=O)c1c(C)[nH]c2c1C(=O)CCC2)c1ccnn1C (centres undefined)	-6	-7
CN(C)c1ccc(CNC(=O)C2CCN(c3ccc(C(F)(F)F)cc3[N+](=O)[O-])CC2)cc1	0	23
COc1ccccc1-c1cc(C(=O)N2CCOC(C(F)(F)F)C2)[nH]n1 (centres undefined)	7	4
COc1ccc(N2CCN(CCn3c(C)c(C)n4c5c(=O)[nH]c(=O)n(C)c5nc34)CC2)cc1	-4	1
COc1ccc2cc(C(=O)N(C)C3CCS(=O)(=O)C3)ccc2c1 (centres undefined)	-3	-5
Cc1ccsc1C(CNC(=O)c1ccc2c(c1)no[n+]2[O-])N(C)C (centres undefined)	-2	-4
CCCCC(=O)N(C)c1c(CC)nc2c(OCCOC)cccn12	-15	-9
O=c1[nH]ncc(NCc2ccc(S(=O)(=O)N3CCCC3)cc2)c1Cl	14	12
CC(C)c1cc(C2CCN(C(=O)COc3ccc4c(c3)OCO4)CC2)[nH]n1	16	13
COc1ccc(OC)c(CCn2c(=S)[nH]c3c(oc4ccccc43)c2=O)c1	5	9
O=C(CN1C(=O)c2ccc([N+](=O)[O-])cc2C1=O)Nc1cc(Cl)ccc1C(=O)O	11	3
CCc1c(C)sc(NC(=O)CCc2c(C)noc2C)c1C#N	-2	-5
COc1ccc2c(c1)CC1=C2CCC2(C)C(=O)CCC=C12 (centres undefined)	-1	-1
Cc1csc2ncc(C(=O)NCc3ccccc3Cl)c(=O)n12	2	-3
O=C1C(C(c2ccco2)N2CCN(CCO)CC2)Sc2ncnn21 (centres undefined)	-1	-1
N#CCCN1CC(O)CN(C(=O)c2ccc(F)cc2)CC1=O (centres undefined)	1	12
COCC1CCCN(Cc2ccc3c(c2)CN(Cc2cccn2-c2cccnc2)CCO3)C1 (centres undefined)	19	13
CCOC(=O)CSc1nnc(NC(=O)c2ccccc2)s1	0	22
C=CC[C@@H]1CC=C[C@@H](C)N1C(=O)c1nc2ccccc2c(=O)[nH]1	18	8
Cc1ccc(=O)n(CC(=O)N2CCCC(CCc3ccc(F)cc3)C2)n1 (centres undefined)	4	4
C=CCNc1ccccc1C(=O)NCc1cc(=O)[nH]cn1	15	11
CCCCc1nnc(NC(=O)N2CCc3ccccc3C2)s1	0	-2
CC(C)c1ccc(CC(=O)N2CCC2(C)C(=O)NCC2CC2)cc1 (centres undefined)	9	7
O=C(CC(c1ccccc1)c1ccccc1)NCCn1nc(-c2ccco2)ccc1=O	-3	-6
Cc1ccccc1Cn1cc(C(=O)N2CCN(C3CCCC3)CC2)nn1	7	4
COC(=O)NC1CCN(c2ccccc2C(=O)NCCc2ccc(OC)c(OC)c2)CC1	-4	7
O=C(CCCc1ccccc1)N1C[C@H]2C[C@H](O)[C@H](O)C[C@H]2C1	6	3
Cc1cc(Cl)cc2sc(=NC(=O)C(C)(C)C)n(C)c12	6	5
C=CCN(Cc1cccn1Cc1ccc(F)cc1)CC(O)CN1CCOCC1 (centres undefined)	-5	-4
O=C(NCCc1ccccc1)c1cc2ccsc2n1CCCc1ccccc1	20	25
CC(C)(C)CC(NC(=O)c1ccc(-n2cnnc2)cc1)c1cccnc1 (centres undefined)	0	-2
CC(C)c1cc(C2CCN(Cc3ccnn3-c3ccccc3)CC2)[nH]n1	1	0
CC(C)(C)c1nc2ccccc2n1CCOc1ccccc1Cl	-10	-13
CCn1cc(C2CCN(c3ncnc4nc(N)ccc34)CC2)cn1	-1	-2
O=c1[nH]c2ccc(S(=O)(=O)N3CCN(C4CCS(=O)(=O)C4)CC3)cc2[nH]1 (centres undefined)	3	2
Cc1ccc2c(c1)CCN1C(=O)CN(C(=O)COc3c(F)c(F)c(F)c(F)c3F)CC21 (centres undefined)	14	22
CC(=O)NC1C(=O)N(CCOc2ccc(C)cc2)c2ccc(C)cc21 (centres undefined)	-2	-2
COc1cc(OC)cc(C(=O)N2CCN(C(=O)CSc3nnc(Cc4ccccc4)n3-c3cccc(C)c3)CC2C)c1 (centres undefined)	2	11
O=C(Cn1c(CO)cnc1SCCc1ccccc1)NC1CC1	7	2
CC1CCC2C3(C)COC(C)(C)OC3CC[C@]2(C)[C@@]12CCC(CO)(CCO)O2 (some centres undefined)	3	3
COCCn1c(C)cc(O)c(C(c2cccnc2)N2CCCCC2)c1=O (centres undefined)	16	6
Cc1nc(C)c(-c2ccc(SCc3cccc(F)c3)nn2)s1	13	5
CN(C)C1CCN(C(=O)C2CCCc3ccn(CC4CC4)c32)CC1 (centres undefined)	-2	-2

Three compounds already listed, sorted by SMILES length, low to high.
SMILES	NPYLR7 ag	NPYLR7 ag max-min
CCn1cc(C2CCN(c3ncnc4nc(N)ccc34)CC2)cn1	-1	-2
CC(C)c1cc(C2CCN(Cc3ccnn3-c3ccccc3)CC2)[nH]n1	1	0
Cc1ccc2c(c1)CCN1C(=O)CN(C(=O)COc3c(F)c(F)c(F)c(F)c3F)CC21 (centres undefined)	14	22

Continuation:
SMILES	NPYLR7 ag	NPYLR7 ag max-min
Cc1ccc(CNC(=O)c2cn(C)c3c(=O)n(-c4ccccc4)c(=O)[nH]c23)cc1	6	4
C=CCN1CCN(c2cc(Oc3cccc(Cl)c3)ncn2)CC1	-5	1
CC(=O)Nc1ccc(S(=O)(=O)Oc2cccc(CN(Cc3ccco3)C(=O)c3cccs3)c2)cc1	5	11
Cc1ccc(CNC(=O)c2sc3nc4n(c(=O)c3c2C)CCCCC4)cc1F	2	9
Cc1cccc(CC(=O)Nc2cc(C)nn2-c2ncnc3c2cnn3-c2cccc(Cl)c2)c1	4	2
COc1cc(/C=N\N2C(=O)C3C4C=CC(CC4)C3C2=O)cc(Br)c1O (centres undefined)	-2	-4
Cn1ccnc1SCCNC(=O)c1ccc2nc(C3CC3)oc2c1	1	0
CS(=O)(=O)NCc1nnnn1C1CCCCC1	4	2
O=C(CCCn1nnnc1CN1CCOCC1)N1CCc2ccccc2C1	-3	-5
C=CCCC(O)CN(Cc1ccccc1)Cc1ccccc1F (centres undefined)	42	30
CCN1CCN(C2=NS(=O)(=O)c3ccccc32)CC1	8	16
COc1cccc(-c2cc(C(=O)Nc3c(C)cccc3C)c3ccccc3n2)c1	1	-8
O=C(Nc1ccc(-c2nc3ccccc3o2)cc1)c1cc(I)ccc1Cl	-10	-16
CN(C)c1ccc(-c2nnc(NC(=O)C3CCCN3C(=O)c3ccc(Br)cc3)s2)cc1 (centres undefined)	11	3
Cc1ccc(F)c(C(=O)NC(C)c2nnc3n2CCNCC3)c1Cl (centres undefined)	1	4
O=C(c1scc2c1CCCC2)N1CCCC(Nc2ccc(F)cc2)C1 (centres undefined)	1&3	1&5
O=C(c1cccs1)N1CCc2ccccc2C1c1ccccc1F (centres undefined)	3	16
CCOC(=O)[C@H]1O[C@@H]1C(=O)N[C@@H](CC(C)C)C(=O)NCCC(C)C	4	-2
COc1ccc(OCc2cc(C(=O)N3CCCC(OC)C3)n[nH]2)c(Cl)c1 (centres undefined)	12	7
CCC1(C)NC(=O)N(NC(=O)CN(C)Cc2ccccc2C(F)(F)F)C1=O (centres undefined)	2	1
CCOC(=O)c1c(NC(=O)COc2ccc(Cl)cc2)sc(C(=O)Nc2ccc(OC)cc2)c1C	-6	-1
O=C(CC12CC3CC(CC(Br)(C3)C1)C2)Nc1cccc(CN2CCCC2=O)c1	-4	-6
COc1cccc(CN2CCCn3cccc3C2c2cc(C)ccc2C)c1 (centres undefined)	0	4
CNC(=O)c1[nH]nc2c1C(CCSC)CC(=O)N2 (centres undefined)	0	9
Cn1ccnc1-c1c(-c2ccccc2)ncn1CC(=O)N1CCNCC1	3	1
CN1CCN2CCN(S(=O)(=O)c3cn(C)cn3)CC2C1=O (centres undefined)	4	3
CCOc1ccc(C(=O)Nc2ccc(C(=O)OC)cc2)cc1[N+](=O)[O-]	-9	-3
CCSc1nc(NC(C)C)c2cnn(CCNC(=O)C3CC3)c2n1	-3	-4
COc1ccc(OCC(O)CN(Cc2cccn2Cc2ccccc2F)C2CC2)cc1 (centres undefined)	5	15
Cc1nc2c(c(N3CCCCC3)n1)CN(C(=O)Nc1ccc(F)c(Cl)c1)CC2	17	10
CCc1ccc(C(CN=C(N)NCCOC)N(C)C)cc1 (centres undefined)	3	0
Fc1ccc(-c2nc3c(OCc4ccccc4)cccn3c2NCc2ccccc2)cc1	19	22
Cc1nc(CCC(=O)N2CCC(=O)N(CC3CC3)C(C(C)C)C2)n[nH]1 (centres undefined)	7	3
Cc1nn(C(C)C)c(C)c1CN(C)CC(=O)NCc1ccccc1F	21	15
CCOc1ccc(C(=O)NC2CC3CCC(C2)N3Cc2ccc(OC)cc2OC)cc1 (centres undefined)	22	7
CCCNC(=O)Cn1nc2c(c1NC(=O)C13CC4CC(CC(C4)C1)C3)CSC2	-9	-14
COc1cc(-c2cccc(CCN)c2)cc(OC)c1OC	11	3
Cc1ccsc1C(=O)N1CCCC(C(=O)Nc2cccc(-c3cc4ccccc4[nH]3)c2)C1 (centres undefined)	24&5	23&-3
CCOC(=O)c1cc2c(oc1=O)c(I)cc1oc3c(c12)CCCC3	-18	-23
NCc1ccccc1CC(=O)NC1C(=O)N2C(C(=O)O)=C(CSc3nnnn3CC(=O)O)CSC12 (centres undefined)	1	6
COCCNC(=O)C1CCCN(C2CCN(c3ncccc3C(=O)O)CC2)C1 (centres undefined)	3	-1
Cc1ccccc1-c1ccc(-c2nccn2CCC(N)=O)cc1	15	11
OCn1nc(-c2cccc(Br)c2)oc1=S	-6	-4
Nc1nc(-c2cc3cc(Br)ccc3oc2=O)cs1	-3&-1	-5&-1
COc1ccc(NC(=O)C2CSC3(C)CCC(=O)N23)cc1S(=O)(=O)N1CCCCC1 (centres undefined)	-1	-4
NC(=O)COc1ccc(C(=O)NS(=O)(=O)C2CCCCC2)cc1	9	8
Cn1cccc1C1CCCN1Cc1ccc(C(N)=O)cc1 (centres undefined)	-24	-27
CCOc1ccccc1N1CCN(S(=O)(=O)c2ccc(OC)cc2)CC1	7	-1
CCOc1ccc(CN2CCC3(CC2)c2ccccc2[C@@H](NC(=O)COc2ccccc2)[C@@H]3O)cc1	20	12
CCOC(=O)C1CCN(C(c2ccc(F)c(F)c2)C2Sc3nc(C)nn3C2=O)CC1 (centres undefined)	0	-3
Cc1csc(N2C(=N)SC(c3ccccc3)C2=O)n1 (centres undefined)	1	-1
CN(C)c1ccc(NC(=O)C2CCCC2)cc1CN(Cc1cccc(F)c1)C(=O)c1cccs1	1	13
Brc1c(OCc2cn3cccnc3n2)ccc2ccccc12	4	2
CC(C)(C)c1ccc(-n2c(CN)n[nH]c2=O)cc1	3	1
Cn1cc(CCNC(=O)N2CCSCC2)cn1	1	-2

A few values from the entries so far.
Reading for Brc1c(OCc2cn3cccnc3n2)ccc2ccccc12 in NPYLR7 ag: 4
Reading for CN(C)c1ccc(NC(=O)C2CCCC2)cc1CN(Cc1cccc(F)c1)C(=O)c1cccs1 in NPYLR7 ag max-min: 13
Reading for CCOC(=O)C1CCN(C(c2ccc(F)c(F)c2)C2Sc3nc(C)nn3C2=O)CC1 (centres undefined) in NPYLR7 ag max-min: -3
Reading for CCOc1ccccc1N1CCN(S(=O)(=O)c2ccc(OC)cc2)CC1 in NPYLR7 ag: 7
Reading for CC(C)(C)c1ccc(-n2c(CN)n[nH]c2=O)cc1 in NPYLR7 ag max-min: 1
Reading for CCOc1ccc(CN2CCC3(CC2)c2ccccc2[C@@H](NC(=O)COc2ccccc2)[C@@H]3O)cc1 in NPYLR7 ag max-min: 12
